Screening data deposited in PubChem by ICCB-Longwood Screening Facility, Harvard Medical School.
AID504770: E. coli YBA685 growth inhibition, screen for V. cholerae RctB inhibitors; E. coli YBA685 rctB-dependent plasmid, OD600 growth, 3 h; hits give low values; z-score (concentration not given with the values); hit rate 0.27% among 130,000; AID 504770;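 active = z-score under -2 on both plates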;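 note: wells of about 30 µL received 100 nL stock; score is relative to mean and SD of the test wells; the first replicate is given; strong numbers were not always called active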
Ba CapD inh: blocks the Bacillus anthracis CapD enzyme; AID 492967; z-score (no concentration beside the values); hit rate 0.23% among 140,000; purified CapD enzyme, fluorescence intensity read-out; hits give low values; some hits fall short of the stated cut;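 active = z-score under -4 in either of two replicates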;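 note: stock transfer was 100 nL into about 40 µL; score is relative to mean and spread of the plate; one replicate is shown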
* = called active by the depositor; x = not tested or not shown. This is a subset, so the mix of outcomes need not match the whole.

Molecule | AID504770 | Ba CapD inh
CCCCCCCCCOCC1OC2OC(C)(C)OC2C2OC(C)(C)OC12 (centres undefined) | x | -0.11
COc1cc(N)ccc1OC(C)C | -0.8 | x
O=C(CCCOc1ccccc1)N1CCN(c2ccccn2)CC1 | -1.8 | x
O=C(Nc1ccccc1[N+](=O)[O-])C1COc2ccccc2O1 (centres undefined) | x | -0.11
O=S(=O)(Nc1ccccc1N1CCCCC1)c1cccc2nonc12 | -0.35 | -0.86
O=C(NCC(=O)N1CCCC1)C1CCCCC1 | 0.15 | x
Cc1cc(NC(=O)C2CCC2)n(-c2nc3ccccc3s2)n1 | 2.1 | -1.5
N#Cc1ccc(COC(=O)C(Cc2ccccc2)n2cnnn2)cc1 (centres undefined) | -1.1 | x
Cc1ccc(/C=N/O)cc1 | -0.25 | x
CC(C(=O)Nc1ccc2c(c1)OCO2)N1CCN(S(=O)(=O)c2ccc(Cl)s2)CC1 (centres undefined) | -0.1 | x
CCC(C)N1CCN(CC2CC=CCC2)CC1 (centres undefined) | -0.95 | 0.57
Cc1nc(-c2nc(C)c(Cl)c(=O)[nH]2)cs1 | -1.1 | -0.88
CCOC(=O)C1=C(C)N(Cc2c(F)cccc2Cl)c2ccccc2S1 | x | -0.66
COC(=O)C1CCN(S(=O)(=O)c2ccc(Cl)cc2)CC1 | -0.9 | 0.51
CCCc1cc(=S)sc(N)n1 | 1 | -3.7
O=C(O)c1ccc(N=c2oc3cc(O)ccc3cc2C(=O)Nc2ccc(Cl)cc2)cc1 | x | -0.77
O=C1C=CC=C2C3CC(CC12)CN(c1nc(Cl)nc(NCc2ccco2)n1)C3 (centres undefined) | -0.9 | -0.99
COc1cc(Cl)ccc1N=Cc1c(O)c2c(=O)n(C)c(=O)n(C)c2n(C)c1=O | 1.4 | -0.3
CCOC(=O)Cn1c(=O)c(=O)n(C(C)C)c2ccc(S(C)(=O)=O)cc21 | x | -0.005
COc1ccc(CNC(=O)/C(=C\c2ccccc2OC)c2ccccc2)cc1 | x | 0.03

(listing goes on)
Molecule | AID504770 | Ba CapD inh
Cc1ccc(NC(=O)COC(=O)C2(CC(=O)N3CCOCC3)CCCC2)cc1C | -0.7 | x
CCS(=O)(=O)c1ccc2oc(SCC(=O)NC(C)C3CC4CCC3C4)nc2c1 (centres undefined) | 0.75 | x
CN(Cc1ccccc1)c1c2c(nc3nncn13)CCC2 | -0.1 | -1.9
COc1cc(Nc2nc(SCc3ccncc3)nc3ccccc23)cc(OC)c1 | x | 2
CCOC(=O)c1cc(-c2ccc(/C=C(\C#N)C(N)=C(C#N)C#N)o2)ccc1Cl | 2.1 | x
CCN(CC)c1nnc(Cl)c2ccccc12 | 0.15 | -0.39
Cn1nc2c3ccccc3n(Cc3ccccc3)c2nc1=S | 0.7 | 1
Nc1nc(-c2ccc(NC(=O)c3ccco3)cc2)cs1 | -0.6 | x
N/C(=N\OCC(=O)Nc1ccccc1)c1nonc1N | -0.3 | x
O=C(Nc1ccc(F)cc1F)c1ccc2c(Cl)c3c(nc2c1)CCC3 | 0.15 | -0.12
Cc1ccc(C)c(CNc2ccc3[nH]ncc3c2)c1 | -0.95 | 74
CCn1nnc2cc(C(=O)Nc3ccccc3C(=O)NC3CCCC3)ccc21 | -0.05 | x
C/C(Cn1nnc2ccccc21)=N\NC(=O)c1ccc(Br)cc1 | -0.7 | -0.17
Nc1c(C(=O)Nc2ccccc2)sc(=S)n1-c1ccccc1F | x | 0.42
Cn1c(SCc2ccc(F)cc2)nc(-c2ccccc2)c1-c1ccccc1 | x | 0.69
CCc1nc(CN2CCN(c3ccc(C(F)(F)F)cn3)CC2)c(C)[nH]1 | -0.75 | -0.68
CSc1nnc(C(C)c2ncc(C(F)(F)F)cc2Cl)n1-c1ccccc1 (centres undefined) | x | -0.31
CSc1nc(/N=C/N(C)C)n(-c2c(Cl)cc(Cl)cc2Cl)n1 | -0.3 | -0.21
CCOC(=O)c1sc2nc(-c3ccccc3)cn2c1C | 0.55 | x
COc1ccc(C2CC(C3C(=O)c4ccccc4C3=O)=NN2)cc1 (centres undefined) | -0.7 | -1.3

Carrying on:
Molecule | AID504770 | Ba CapD inh
Cc1ccccc1CN1C(=O)C2CC=CCC2C1=O (centres undefined) | -1.1 | x
NC(=O)C1CCC(NC(=O)c2ccc3snnc3c2)CC1 (centres undefined) | 0.25 | 0.28
COC(=O)/C=c1\sc2n(c1=O)CN(CCCN1CCOCC1)CN=2 | -1.3 | x
COc1ccc(C2CC(=O)C3=C(C2)Nc2ccccc2NC3c2ccccc2Br)cc1 (centres undefined) | x | -0.32
O=c1c2cccnc2n(Cc2ccc(Cl)cc2)c(=O)n1C1CCCCC1 | -0.5 | 5.6
COc1ccc(NC(=O)c2cc3sccc3n2Cc2ccc(F)cc2)cc1Cl | 0.6 | 4.7
CCCC(=O)c1cc2c(cc1N)OCCO2 | 0.45 | x
O=C(c1cnn(-c2ccccc2)n1)N(Cc1nc2ccccc2c(=O)[nH]1)CC1CCCO1 (centres undefined) | -0.7 | x
COc1ccccc1NC(=S)NCCC(=O)O | x | -0.29
O=C1NCCN1CCNC(=S)Nc1cc(C(F)(F)F)cc(C(F)(F)F)c1 | 1.6 | 0.33
Fc1cccc(-c2nc3cc(N4CCOCC4)c(N4CCOCC4)cc3[nH]2)c1 | 0.8 | 14
C=CCN(CC(N)=O)S(=O)(=O)c1ccccc1C(F)(F)F | -0.2 | x
CNC(=O)c1ccccc1NCC(=O)O | -0.75 | 115
Cc1cccc(C(=O)N2CCc3c([nH]c4ccccc34)C2)c1 | x | -0.12
NC(=O)CNC(=O)c1ccc(Oc2ccccc2)cc1 | 0.3 | x
CCC1CCCCN1C(=S)NC(=O)c1ccccc1 (centres undefined) | 1 | 0.1
COc1ccc(-c2oc3ncn(CC(C)C)c(=N)c3c2-c2ccc(OC)cc2)cc1 | 0.55 | -0.34
COc1ccc(-c2noc(N3CCCC(C(=O)NC4CCCc5ccccc54)C3)n2)cc1 (centres undefined) | -0.15 | -0.04
O=C(CC1(O)C(=O)N(CCc2ccccc2)c2ccccc21)c1cccnc1 (centres undefined) | -0.6 | -0.36
CN(C)CCNC(=O)c1c[nH]c2ccccc12 | -0.3 | 0.1

Three structures already listed, arranged by length of the SMILES, smallest number first:
Molecule | AID504770 | Ba CapD inh
CCCC(=O)c1cc2c(cc1N)OCCO2 | 0.45 | x
COc1ccc(NC(=O)c2cc3sccc3n2Cc2ccc(F)cc2)cc1Cl | 0.6 | 4.7
COc1ccc(C2CC(=O)C3=C(C2)Nc2ccccc2NC3c2ccccc2Br)cc1 (centres undefined) | x | -0.32

The list continues:
Molecule | AID504770 | Ba CapD inh
COc1cc(C2C(C(=O)N3CCOCC3)=C(C)NC3=C2C(=O)CC(C)(C)C3)cc(Cl)c1O (centres undefined) | x | 13
CN1C(=O)CS/C1=C\C#N | -0.35 | x
COc1cccc(C(=O)OCC(=O)c2ccc(-c3ccccc3)cc2)c1 | 1.2 | -0.98
Cc1c(S(=O)(=O)NC2CCCCNC2=O)sc2ccc(Cl)cc12 (centres undefined) | 0.55 | 0.92
CCN(CC)CCN1COc2c(cc(Cl)c3cccnc23)C1 | 2.1 | -1
CCOC(=O)c1cnc(SCC(=O)OCC(=O)N2CCc3ccccc32)nc1N | -1 | x
Oc1c(CN2CCCCCC2)cc(Cl)c2cccnc12 | 1.6 | x
CCC1(C)Cc2c(C#N)c(N)n(-c3ccccc3)c(=O)c2CO1 (centres undefined) | -0.95 | 1.7
CC1=C(C(=O)OCCc2ccccc2)C(c2cccc(C(F)(F)F)c2)NC(=O)N1C (centres undefined) | x | 1.2
O=C(CCCn1c(SCc2cc(=O)oc3cc(O)ccc23)nc2ccsc2c1=O)NCCc1ccccc1 | 1.9 | 0.045
O=C(COc1ccc(F)cc1)N/N=C1\CCS(=O)(=O)c2ccc(F)cc21 | -0.9 | x
O=C(CSc1nc(C(F)(F)F)cc(=O)[nH]1)N1CCN(c2ccccc2)CC1 | 0.8 | x
O=c1cc(-c2ccccc2)c2c(O)cc(O)cc2o1 | 0.95 | -0.24
Cc1cc(N2C(=O)CSC2c2ccccc2[N+](=O)[O-])ccc1Br (centres undefined) | x | 0.79
CCOc1ccc(C2=C(Cl)C=C(c3ccc(F)cc3)c3ccccc3O2)cc1 | x | -0.95
CCCNC(=O)Cn1c(-c2cccs2)cc2ccccc21 | 0.65 | 115
CCOC(=O)c1sc2nc(SCC(=O)NCc3ccco3)n(CCc3ccc(OC)c(OC)c3)c(=O)c2c1C | x | 0.27
Cc1ccc(CN2C(=O)CCC2(C)C(=O)NCCC(C)C)cc1 (centres undefined) | 0.9 | 0.83
CCOC(=O)c1c(NC(C)=O)c2c3c(sc2n1Cc1nc(-c2ccccc2OC)oc1C)CCCC3 | 1.2 | -0.4
COc1cc(C)c(Cl)c(C)c1S(=O)(=O)N1CCN(Cc2ccccc2)CC1 | 2.7 | 0.17

More compounds follow:
Molecule | AID504770 | Ba CapD inh
C=CCN(c1ccccc1)C(C(=O)Nc1ccc2c(c1)OCCO2)c1ccccc1 (centres undefined) | x | 0.6
N#CC1=C(N)OC2=C(CCc3ccccc32)C1c1ccccc1Cl (centres undefined) | -0.05 | 11
NC(=S)c1cccc(Oc2ccccc2)c1 | 2 | x
CC(C)Oc1cc(NC(=O)CSCC(=O)N(C)C)c(Cl)cc1Cl | x | -0.29
CC(=O)[C@@H]1[C@@H](c2ccccc2)C(C#N)(C#N)[C@H]2C=Cc3ccccc3N12 | x | 2.5
COc1ccccc1/C=C1\SC(=O)N(c2ccccc2)C1=O | 0.35 | 0.46
O=C(NC1CCN(c2ccccc2)CC1)OCCOc1ccc2ccccc2c1 | x | 0.51
O=C(COc1cccc(Cl)c1)NN1C(=O)c2ccccc2NC1c1ccccc1Cl (centres undefined) | x | -0.51
CC1Cc2ccccc2N1C(=O)CSc1nccc(=O)[nH]1 (centres undefined) | 0.05 | x
COc1ccc2nc(NCc3ccccc3)[nH]c2c1 | -1.5 | -0.29
CCOC(=O)c1cc(-c2ccc(C=C3C(=O)N(C)C(=O)N(C)C3=O)o2)ccc1Cl | x | 0.29
CC(=O)OC1CCCN(CCCN2c3ccccc3Sc3ccc(Cl)cc32)C1 (centres undefined) | x | 0.095
O=C(CSc1nnc(CNc2ccc(F)cc2)o1)N1c2ccccc2Sc2ccccc21 | 2 | x
CC1=C(C#Cc2ccccc2)c2ccccc2OC1(c1ccccc1)N1CCCC1 (centres undefined) | x | -0.17
Cc1c(Br)sc2sc(-c3ccnc(SCC(=O)NC(C)C)n3)c(C)c12 | 0 | 2.4
O=c1[nH]cc(F)c(=O)[nH]1 | 0.45 | 0.34
Cc1nc2sc(C(=O)c3ccc(Br)cc3)c(N)c2c(C)c1C | x | -0.44
COc1ccc(-c2noc(CN(C(=O)CN3C(=O)c4ccccc4C3=O)C(C)C)n2)cc1 | 1.1 | -0.27
CC(C)(C)NS(=O)(=O)c1sc(Br)cc1Br | 0.05 | 0.19
CC(=O)c1ccc(NC(=O)C2OC3OC(C)(C)OC3C3OC(C)(C)OC23)cc1 (centres undefined) | x | -0.35

Part of the list above, with two lines to a compound.
Below each compound: AID504770, Ba CapD inh
> CC(=O)[C@@H]1[C@@H](c2ccccc2)C(C#N)(C#N)[C@H]2C=Cc3ccccc3N12
 : x, 2.5
> CC1Cc2ccccc2N1C(=O)CSc1nccc(=O)[nH]1 (centres undefined)
 : 0.05, x
> O=c1[nH]cc(F)c(=O)[nH]1
 : 0.45, 0.34

Going on with the list:
Molecule | AID504770 | Ba CapD inh
On1c(-c2cccc(C(F)(F)F)c2)nc2ncccc21 | 0.4 | 2.3
CCOC(=O)N1CCN(C(c2ccccn2)c2cc(Cl)c3cccnc3c2O)CC1 (centres undefined) | -0.75 | x
CCN(c1ccc2oc3ccccc3c2c1)S(=O)(=O)c1ccc(C#N)cc1 | -0.8 | x
O=C(CC1(O)C(=O)c2ccccc2C1=O)c1ccccc1 | -0.3 | -0.095
COc1ccc(C(=O)N2CCN(S(=O)(=O)c3ccc(Br)s3)CC2)cc1F | x | -0.005
O=C1/C(=C\c2nc3ccccc3c(=O)n2CCCO)c2ccccc2N1Cc1ccccc1 | x | 0.42
COc1cc2c(cc1OC)C(C)N(C(=O)c1c(-c3ccccc3)noc1C)CC2 (centres undefined) | x | -0.32
CCN(CC)c1ccc(NC(=O)COc2ccc(C)cc2C)c(C)c1 | -0.85 | -0.59
CCC12CN3CC(CC)(CN(C1)C3c1c(C)[nH]c3ccccc13)C2=O (centres undefined) | -0.15 | -0.18
CCC(=O)N1CCc2cc(Br)cc(S(=O)(=O)CCC(=O)N3CCc4ccccc43)c21 | 0.95 | 0.095
O=C(O)CSCc1ccc(F)cc1 | -1.5 | 0.93
O=C1C2C3C=CC(C3)C2C(=O)N1Cc1cccnc1 (centres undefined) | 0.7 | 0.17
O=C(NCC(=O)N1CCN(CCCC(c2ccc(F)cc2)c2ccc(F)cc2)CC1)c1cccnc1 | x | -0.82
COC(=O)C1=C(C)N(C2CCCCC2)C(=O)/C1=C\c1ccc(N(C)C)cc1 | 1.2 | 0.18
O=C(CCC(=O)n1ncc2ccccc21)N1CCCCC1 | -0.55 | 0.17
CCN(CC)CCCNC(=O)c1nn2c(C(F)(F)F)cc(-c3cccs3)nc2c1Br | x | -0.28
O=S(=O)(NCc1ccccc1)c1ccc(F)cc1 | 0 | x
Cc1ccc(C(=O)COC(=O)C2C3CC4OC(=O)C2C4C3)cc1 (centres undefined) | -0.8 | x
COc1ccc(CCn2c(=O)c3cccnc3n(Cc3ccc(C#N)cc3)c2=O)cc1OC | -0.9 | -0.3
CCOC(=O)C(C(=O)Nc1ccccc1)C1CCCCC1 (centres undefined) | 0.95 | -0.35
COc1cc(/C=C(/Sc2nnc(-c3ccc(F)cc3)o2)C(=O)O)ccc1OC(F)F | 1.5 | x
O=C1CSC(c2ccccc2)c2c(-c3ccccc3)nn(-c3ccccc3)c2N1 (centres undefined) | 0.7 | 0.43
